Cruzain Triton = inhibitors of Trypanosoma cruzi cruzain with detergent. purified cruzain, Z-FR-AMC fluorescence, 0.01% Triton. Potency, µM, for the others: max response, negative = inhibition, usual class: inhibitors. 200,000 tested, 0.43% active. AID 1478;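 further: plate controls were neutral wells for no effect and buffer without enzyme for full effect; nearly all actives have a fitted effect of over 40% in size; top concentration of the series not given in the record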
Target sequence (P25779 123-467 limits assumed): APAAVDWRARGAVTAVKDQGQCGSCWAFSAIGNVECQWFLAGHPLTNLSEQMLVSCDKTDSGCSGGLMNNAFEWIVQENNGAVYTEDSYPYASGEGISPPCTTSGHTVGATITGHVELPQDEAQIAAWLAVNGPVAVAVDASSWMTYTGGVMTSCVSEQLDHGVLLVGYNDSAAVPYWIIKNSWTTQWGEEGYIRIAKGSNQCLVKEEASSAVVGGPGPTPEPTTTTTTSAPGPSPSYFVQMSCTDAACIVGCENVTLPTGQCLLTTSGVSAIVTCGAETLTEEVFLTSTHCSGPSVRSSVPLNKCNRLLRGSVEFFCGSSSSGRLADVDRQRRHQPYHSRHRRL
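Compounds were screened in titration against cruzain (1.5 nM) with 0.01% Triton X-100 to counter colloidal aggregation. Activity was the AMC fluorescence increase over 60 s after adding 2 uM Z-FR-AMC at pH 5.5.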
NS1 inh = blocks influenza NS1 protein function. S. cerevisiae slowed by influenza A NS1, growth recovery by OD600. Potency, µM (titrated, usually from 46.1 µM), without a hit: at the top dose activity, positive = more growth. 270,000 tested, 0.4% active. AID 2326; active means well fitted rising curve with a large enough effect; inconclusive means small, poorly fitted or top-dose-only effect; inactive means no such curve, though single readings can be large or run the other way; further: nearly all actives have a fitted effect of over 50% in size
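Recovery from NS1-induced slow growth read by OD600 in budding yeast switched to galactose assay medium (pH 6.0, -URA) at 1:100 dilution. Compound 23 nl per well; the matching strain lacking NS1 serves as control.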
LASV entry inh = inhibitors of Lassa virus binding or cell entry. 300,000 tested, 1.2% active. Potency, µM (doses to about 37.9 µM), inactives show top-dose activity change, negative = inhibition, usual class: inhibitors. Lassa virus pseudotype entry inhibition, cell reporter; control for the full effect not named in the record. AID 540256; active means well fitted inhibition curve with a large enough effect; inconclusive means small, poorly fitted or top-dose-only effect, or effect the other way; inactive means flat fitted curve, though single readings scatter; tested in HEK293 cells; further: on the % scale 0 is the no-effect control and ±100 the full control effect; nearly all actives have a fitted effect of over 50% in size; luciferase read-out
SARS PLpro yeast = inhibitors of SARS-CoV papain-like protease in yeast. AID 485353. 330,000 tested, 0.19% active. Potency, µM (series often up to 32.9 µM), for the others: at the highest dose activity, positive = growth rescue. S. cerevisiae expressing SARS-CoV PLpro, growth rescue; control for the full effect not named in the record; active means well fitted rising curve with a large enough effect; inconclusive means small, poorly fitted or top-dose-only effect; inactive means no such curve, though single readings can be large or run the other way; further: 0% is about no effect; nearly all actives have a fitted effect of over 55% in size; growth read by luminescence after 48 h
Marburg entry inh = Marburg virus entry inhibition; AID 540276; 300,000 tested, 1.8% active; Marburg virus pseudotyped entry inhibition, cell reporter; control for the full effect not named in the record; about a third of the inactives were read at about 46 µM; Potency, µM (doses to about 37.8 µM), without a hit: top-dose activity change, negative = inhibition, most hits filed as inhibitors; active = well fitted inhibition curve with a large enough effect; inconclusive = small, poorly fitted or top-dose-only effect, or effect the other way; inactive = flat fitted curve, though single readings scatter; tested in HEK293 cells; about a fifth of its hits are not listed in these tables; further: on the % scale 0 is the no-effect control and ±100 the full control effect; luciferase read-out
Cruzain noTriton = cruzain (T. cruzi) inhibition without detergent | purified cruzain, Z-FR-AMC fluorescence, no detergent | Potency, µM, without a hit: max response, negative = inhibition, usual class: inhibitors | 200,000 tested, 2.3% active | AID 1476;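 further: plate controls were enzyme without inhibitor for no effect and buffer without enzyme for full effect; nearly all actives have a fitted effect of over 40% in size; top concentration of the series not given in the record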
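Detergent-free condition (0.00005% Triton X-100) in acetate buffer pH 5.5 with DTT. 1.5 nM enzyme and compound were pre-mixed 15 min, then 2 uM Z-FR-AMC substrate added; reaction progress from fluorescence change between first and third reads (60 s).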
2A StopGo = FMDV 2A StopGo reporter, luciferase signal | Potency, µM (series often up to 57.9 µM), without a hit: top-dose signal change, negative = less light | 410,000 tested, 1.2% active | AID 1159524 | human cells with a luciferase reporter of 2A StopGo recoding; control for the full effect not named in the record; active = well fitted falling curve with a large enough effect; inconclusive = small, poorly fitted or top-dose-only effect; inactive = no such curve, though single readings can be large or run the other way; tested in HEK293T cells; further: on the % scale 0 is the no-effect control and ±100 the full control effect; nearly all actives have a fitted effect of over 45% in size; luciferase light after 4 h
RE007 growth inh = less growth of the S. pombe RE007 Vpr strain; S. pombe RE007 Vpr strain, BacTiter-Glo ATP luminescence, 24 h; control for the full effect not named in the record; Potency, µM (titrated, usually from 92.2 µM), for the others: at the highest dose activity change, negative = less growth; 360,000 tested, 0.21% active; AID 651644; active = well fitted falling curve with a large enough effect; inconclusive = small, poorly fitted or top-dose-only effect; inactive = no such curve, though single readings can be large or run the other way;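 further: on the % scale 0 is the no-effect control and ±100 the full control effect; nearly all actives have a fitted effect of over 50% in size; the assay follows cell death caused by Vpr and the record does not say whether a fall means rescue or toxicity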
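Fission yeast strain RE007, carrying one chromosomally integrated HIV-1 vpr copy, was seeded at OD 0.01 in PMG+AL medium with 23 nL pinned compound. After 24 h at 30 °C and 99% humidity, viability was read by BacTiter-Glo luminescence.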
Starred values were filed as active, the others as inactive; ? = inconclusive; / = no result given; [ ] = dose if it differs, or a comment. Unless noted, the call rests on the fitted dose curve; in most records, active means well fitted curve in the direction sought with a large enough effect; inconclusive means small, poorly fitted or top-dose-only effect, or another doubt; inactive means no such curve, though single readings can be large; an effect the other way counts as inactive or inconclusive. Potency means the concentration at half of the fitted maximal effect.

Second line of a record – Marburg entry inh	2A StopGo	Cruzain noTriton	NS1 inh	RE007 growth inh	SARS PLpro yeast	Cruzain Triton	LASV entry inh
O=C1CNC(=S)N1c1nc(-c2ccccc2)cs1
→ ?	-22%	?	0%	11%	-12%	-1.5%	8%
CCCOC(=O)c1c(NC(=O)C(C)Sc2nc(-c3ccccc3)cc(C(F)(F)F)n2)sc(C(=O)N(C)C)c1C (configuration not stated)
→ ?	?	?	/	/	/	-6.3%	-27%[46.1 µM]
CS(=O)(=O)N(CC(=O)Nc1ccc(C(N)=O)cc1)C1CCCCC1
→ 5%	11%	7%	0%	-18%	0%	4.1%	7%
CCN(CC)c1ccc(NC(=O)CCCN2C(=O)C(c3ccccc3)Oc3cccnc32)c(C)c1 (configuration not stated)
→ /	?	-2%	/	/	/	-0.5%	-4%[46.1 µM]
O=C(NCc1ccc(OC(F)(F)F)cc1)C1CC2Cn3c(nc4ccccc43)C2N1c1ccccc1 (configuration not stated)
→ /	1%	/	1%	-10%	-8%	/	/
Cc1ccc(NC(=O)CSc2nc3ccc(NC(=O)c4ccco4)cc3s2)c(C)c1
→ ?	-25%	-11%	/	/	/	-7.6%	-24%[46.1 µM]
Cc1cc(-c2nnc(CCC(=O)NCc3cccc(C(F)(F)F)c3)o2)no1
→ ?	38%[activator]	/	-16%	-8%	1%	/	?
CC1(C)CC(=O)c2cnc(NC(=O)Cc3ccc(Cl)cc3)nc2C1
→ ?	-26%	8%	0%	-7%	-1%	4.3%	-17%
Nc1nc2n(n1)C1(CCCCC1)C1=C(CCCC1)N2
→ /	/	?	?	/	-1%	4.0%	/
CC1(c2ccccc2)NC(=O)N(CC(=O)Nc2cccc(/C=C/c3ccccn3)c2)C1=O (configuration not stated)
→ ?	-11%	/	/	-9%	-2%	/	-13%
OCCC1CN(Cc2cccn2-c2cccnc2)CCN1C1CCCC1 (configuration not stated)
→ /	-12%	/	2%	9%	5%	/	/
CC(C)(C)Cc1nnc(NS(=O)(=O)Cc2ccccc2)s1
→ -8%	15%	-8%	-11%	31%	6%	0.0%	23%
Cc1ccnc(NC(=O)c2cc(S(=O)(=O)N3CCCCC3)ccc2Cl)c1
→ 6%	-13%	0%	-4%	7%	9%	-5.9%	23%
O=C(NCC(=O)N(CC1CCCO1)C(C(=O)NC1CCCCC1)c1ccccc1)c1cccs1 (configuration not stated)
→ -8%	/	6%	12%	5%	-3%	6.8%	0%
COc1ccccc1C(C(=O)NCc1ccccc1)N(C(=O)c1csnn1)C1CC1 (configuration not stated)
→ -15%[46.1 µM]	2%	/	-7%	-9%	-17%	/	3%
COc1ccccc1C1c2ccc3ccccc3c2Oc2ncn(CCCO)c(=N)c21 (configuration not stated)
→ ?	-17%	/	-2%	-3%	-7%	/	?
CC(=O)c1ccc(-n2nncc2C(C)(C)C)cc1
→ 10%	/	-3%	-14%	49%	-5%	6.5%	10%
Cc1ccc(C(=O)c2coc3ccc(O)cc23)cc1
→ /	-8%	/	-31%	-12%	-4%	/	/
COc1ccc(-c2nn3c(=O)cc(CN4CCN(C(=O)Nc5ccc(C)c(Cl)c5)CC4)nc3s2)cc1
→ /	0%	7%	/	/	/	3.7%	?
CC1(CO)COC2(OC1)C(=O)Nc1ccccc12 (configuration not stated)
→ 4%	-5%	/	/	-8%	1%	/	1%[46.1 µM]
Cc1ccc(C)c(NC(=O)CN2C(=O)CC(C)S(=O)(=O)c3ccccc32)c1 (configuration not stated)
→ ?	-11%	/	9%	-10%	3%	/	7%[46.1 µM]
COc1ccc(CNc2nc(-c3ccc(Cl)cc3)cc(C(F)(F)F)n2)cc1
→ -26%[46.1 µM]	-16%	-26%	/	/	/	-4.2%	?
C=CCOc1c(Cl)cc(CNc2nccs2)cc1OC
→ 11%	4%	/	/	-9%	12%	/	?
Cc1cc(=O)[nH]c(SCC(=O)NC(C)C2CC3CCC2C3)c1C#N (configuration not stated)
→ 5%[46.1 µM]	-10%	/	-5%	2%	1%	/	-19%
Cc1ccc(/C=N/N2CCN(Cc3cccc4ccccc34)CC2)s1
→ -12%	-11%	10µM*	13%	-6%	7%	0.3%	0%
CCn1c(SCC(=O)Nc2nc(-c3ccccc3)cs2)nnc1-c1ccccc1
→ ?	/	?	-29%	7%	12%	-1.2%	-10%
CC(/C=C1\SC(=S)N(CCCC(=O)Nc2ccc(C(=O)O)cc2)C1=O)=C\c1ccccc1
→ -11%	15%	-3%	15%	-11%	-23%	-24%	0%
O=C(NC1CCN(Cc2ccccc2)CC1)c1cc(S(=O)(=O)Nc2ccc(F)cc2)ccc1Cl
→ ?	2%	/	/	-16%	2%	/	?
Cc1ccc(C(=O)NCC(=O)N2CCN(c3cccc(Cl)c3)CC2)s1
→ 5%[46.1 µM]	-5%	/	/	-20%	-6%	/	-13%[46.1 µM]
Cn1nc(C(=O)NC2CCCCC2)c2c1-c1ccccc1SC2
→ /	13%	/	1%	0%	-3%	/	/
CCOc1ccccc1NC(=O)c1c(NCc2ccc(C)o2)sc2c1CCCCC2
→ /	0%	-12%	/	/	/	-6.9%	-8%[46.1 µM]
Cc1ccc(S(=O)(=O)N2CCCCC2)cc1C(=O)N1CCN(c2ccccn2)CC1
→ 8%	?	/	/	-6%	-6%	/	-14%
CCOC(=O)Cn1nc(C)c(NC(=O)c2ccc(Br)o2)c1C
→ 10%[46.1 µM]	4%	/	-12%	1%	0%	/	19%[46.1 µM]
Cc1cc(C)c2c(n1)sc1c(N3CCN(C)CC3)ncnc12
→ /	14%	/	-1%	-10%	-3%	/	/
Oc1ccccc1-c1cc(-c2ccc(F)cc2)n[nH]1
→ -14%	60%[activator]	/	-42%	-20%	-5%	/	?
O=C(c1cnn2c(C(F)(F)F)cc(-c3cccs3)nc12)N1CCN(Cc2ccccc2)CC1
→ ?	0%	-6%	-43%	26%	-39%	-5.9%	?
COc1ccc(OCc2nnc(SCC(=O)Nc3ccc(C)cc3)o2)cc1
→ 5%[46.1 µM]	10%	/	?	9%	16%	/	22%[46.1 µM]
COc1ccc(NC(=O)c2oc3ccccc3c2C)cn1
→ 23%[46.1 µM]	21%	/	9%	-12%	0%	/	1%[46.1 µM]
COc1ccc2oc(=O)c(C(=O)Nc3ccc(C(=O)O)cc3)cc2c1
→ /	-6%	19%	/	/	/	0.5%	17%[46.1 µM]
O=c1c(C(c2ccc(Br)cc2)c2c(O)nc3n(c2=O)CCS3)c(O)nc2n1CCS2
→ ?	-2%	/	9%	10%	2%	/	8%[46.1 µM]
COC(=O)c1sccc1NC(=O)CC1NCCNC1=O (configuration not stated)
→ /	-10%	/	4%	-5%	-2%	/	/
CCCCCc1ccc(OCCCC[n+]2ccccc2)c(CCCCC)c1
→ ?	?	/	/	?	-17%	/	?
CCCn1cc(S(=O)(=O)c2ccc(F)cc2)c(=O)c2cc(OCC)ccc21
→ /	-3%	/	9%	-5%	3%	/	/
CC1CCN(C(=O)/C(=C\c2ccco2)NC(=O)c2ccccc2)CC1
→ 8%[46.1 µM]	9%	/	15%	5%	2%	/	1%
O=C(c1ccc([N+](=O)[O-])cc1)N1CCC(Cc2ccccc2)CC1
→ -13%[46.1 µM]	?	/	/	7%	2%	/	/
COCc1cc(C)nc(SCC[N+](C)(C)CC(=O)c2ccc(Br)cc2)c1C#N
→ 6%[46.1 µM]	-1%	/	/	-3%	2%	/	-14%
Cc1c(Cl)cccc1NC(=S)NCCC(c1ccccc1)c1ccccc1
→ ?	-8%	?	19%	26%	-55%	-2.8%	?
CC(=O)c1ccc(NC(=O)c2ccc(-c3nc(COc4ccc(C)cc4)c(C)o3)cc2)cc1
→ /	-26%	1µM*	/	/	/	-2.9%	?
COc1ccc(-n2nnnc2SCC(=O)N2CCN(C(=O)c3ccco3)CC2)cc1OC
→ ?	-21%	/	/	1%	1%	/	-4%
O=[N+]([O-])c1cccc(S(=O)(=O)NCc2ccccn2)c1
→ 4%[46.1 µM]	-3%	/	13%	-9%	0%	/	?
O=C(NC1CCCCCC1)C1CCN(S(=O)(=O)c2c(Cl)cccc2Cl)CC1
→ 13%	-29%	/	/	1%	7%	/	-17%
Cc1ccc(S(=O)(=O)c2c(C)cc(C)nc2N2CCOCC2)cc1
→ -2%[14.2 µM]	2%	/	/	1%	-2%	/	10%
CC(C)(C)N1CC(c2nc3ccccc3n2Cc2ccc(F)cc2)CC1=O (configuration not stated)
→ -4%	-3%	7%	2%	-18%	7%	-1.6%	-19%
Cc1noc(NS(=O)(=O)c2ccc(NC(=O)c3cc(F)c(F)c(F)c3F)cc2)c1C
→ 3%	-15%	/	/	-3%	1%	/	16%
O=c1oc2cc(OCc3ccc(F)cc3F)ccc2cc1-c1ccccn1
→ 0%	30%[activator]	12%	8%	-14%	6%	-2.9%	11%
Cc1cccc2nc(CSc3nnc(N)s3)cn12
→ 0%[46.1 µM]	49%[activator]	/	/	-15%	-2%	/	17%
Cc1ccc(Oc2ccccc2/C=N/O)cc1
→ 29%	0%	-5%	-6%	-10%	-16%	1.6%	-7%
COc1cccc(NC(=O)CSc2nnc(NC(=O)NC3CCCCC3)s2)c1
→ /	32%[activator]	-9%	/	/	/	-7.4%	?
O=C(NC1CCCC1)C(c1cccnc1)N(C(=O)c1csnn1)C1CCCC1 (configuration not stated)
→ 0%	21%	-5%	-5%	6%	8%	-1.6%	8%
CC(C)(C)C(=O)N1CCC[C@@]1(CO)C(=O)O
→ 4%	6%	13%	7%	-5%	-1%	1.7%	3%
COC(=O)[C@@H](Cc1c[nH]c2ccccc12)NC(=O)c1cc(=O)[nH]c2ccccc12
→ 3%[46.1 µM]	-9%	/	-4%	0%	1%	/	3%
